Source: PubChem
PV pol inh = inhibitors of poliovirus RNA polymerase binding and polymerization; P03300; poliovirus polymerase elongation, fluorescence polarization; active compounds read low; % elongation, % (compound at 16.7 µg/mL); actives 0.66% (n = 150,000); in the data active = % elongation below about 90%; note: some results filed as inactive read as strong as hits
Target sequence (P03300 1749-2209 limits assumed): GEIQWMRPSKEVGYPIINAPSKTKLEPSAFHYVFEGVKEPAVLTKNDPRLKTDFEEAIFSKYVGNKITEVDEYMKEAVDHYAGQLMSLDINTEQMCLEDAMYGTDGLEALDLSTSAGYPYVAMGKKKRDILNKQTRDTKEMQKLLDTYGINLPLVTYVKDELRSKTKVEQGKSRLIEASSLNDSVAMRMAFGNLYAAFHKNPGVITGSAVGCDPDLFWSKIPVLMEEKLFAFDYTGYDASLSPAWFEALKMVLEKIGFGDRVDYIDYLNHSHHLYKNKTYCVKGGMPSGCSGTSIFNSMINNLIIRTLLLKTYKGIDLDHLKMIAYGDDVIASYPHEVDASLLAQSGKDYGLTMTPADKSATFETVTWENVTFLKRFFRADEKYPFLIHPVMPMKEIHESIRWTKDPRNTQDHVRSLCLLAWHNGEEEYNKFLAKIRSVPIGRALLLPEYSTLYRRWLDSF
PV pol inh intensity = further read-out of PV pol inh, marked with its call; % elongation; measured here: total intensity read-out; formula for this scale not given here;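 total fluorescence in place of polarization; lower means less elongation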
An asterisk follows results filed as active. Some of the compounds tested; the hit share may differ from the screen's.

SMILES	PV pol inh	PV pol inh intensity
Cc1ccc(-c2nc(CS(=O)CC(=O)N3CCN(c4ccc(Cl)cc4)CC3)c(C)o2)cc1 (stereo not given)	102	106
CNS(=O)(=O)c1cn(CC(=O)N2CCN(c3cccc(Cl)c3)CC2)cc1S(=O)(=O)NC	104	106
COc1ccc(-c2c(C)nn3c(-c4ccccc4)cc(C)nc23)cc1OC	105	109
O=C(Nc1ccc(F)c(Cl)c1)c1ccc2c(Cl)c3c(nc2c1)CCCC3	101	106
Cc1ccc2nc(SCc3nc(-c4ccccc4C)no3)[nH]c2c1	104	104
CCOC(=O)c1noc2ncnc(N3CCN(c4ccccc4OC)CC3)c12	102	108
Cc1cccc(CN2C(=O)CC(c3ccc(Cl)cc3)c3c(C)nn(-c4nc(C)cc(C)n4)c32)c1 (stereo not given)	104	113
Fc1ccc(CNc2nc3c(-c4ccc(F)cc4)nnn3c3ccccc23)cc1	103	108
COc1ccc(-c2cc3nc(C)c(CCC(=O)N4CCN(c5ccccc5F)CC4)c(C)n3n2)c(OC)c1	109	113
CCCn1cnc2cc(NCc3ccc(OC)cc3OC)ccc21	106	110
Cc1nc2ccn(Cc3ccco3)c(=O)c2cc1C(=O)NCc1ccccc1F	106	101
CCn1c2c(c(=O)n3ncc(C(=O)Nc4ccc(C(=O)OC)cc4)c13)CN(Cc1ccc(OC)cc1)CC2	105	106
CCOc1ccc(-n2c(=O)c3c4c(sc3n(CC(=O)NC(C)CC)c2=O)CCCC4)cc1 (stereo not given)	104	111
CCc1ccc2occ(CC(=O)Nc3c(C(=O)c4ccc(C)cc4)oc4ccccc34)c2c1	116	116
CCCCN(CC)CCCNC(=O)Cn1ncc2c([nH]c3ccc(C)cc32)c1=O	106	109
CCOc1ccc(CCNC(=O)c2nn(-c3ccc(OC)c(Cl)c3)c(=O)c3c2c2ccccc2n3C)cc1OCC	106	110
CCOC(=O)c1cc(-c2ccccc2)n(CCC(=O)Nc2ccc(OC)c(Cl)c2)c1C	100	102
Oc1ccc(NCc2ccc(OCc3ccccc3Cl)cc2)cc1	93	96
Cc1ccccc1Cn1c2ccccc2c2cnn(CC(=O)NC3CCC(C)CC3)c(=O)c21 (stereo not given)	104	106
Cn1c(C(=O)NCc2ccccc2Cl)cc2sc(Cl)cc21	110	111

In the list so far, these contain a thiophene ring, fused or not.
SMILES	PV pol inh	PV pol inh intensity
CCOc1ccc(-n2c(=O)c3c4c(sc3n(CC(=O)NC(C)CC)c2=O)CCCC4)cc1 (stereo not given)	104	111
Cn1c(C(=O)NCc2ccccc2Cl)cc2sc(Cl)cc21	110	111

In the list so far, seven have an aryl methoxy group:
SMILES	PV pol inh	PV pol inh intensity
COc1ccc(-c2c(C)nn3c(-c4ccccc4)cc(C)nc23)cc1OC	105	109
CCOC(=O)c1noc2ncnc(N3CCN(c4ccccc4OC)CC3)c12	102	108
COc1ccc(-c2cc3nc(C)c(CCC(=O)N4CCN(c5ccccc5F)CC4)c(C)n3n2)c(OC)c1	109	113
CCCn1cnc2cc(NCc3ccc(OC)cc3OC)ccc21	106	110
CCn1c2c(c(=O)n3ncc(C(=O)Nc4ccc(C(=O)OC)cc4)c13)CN(Cc1ccc(OC)cc1)CC2	105	106
CCOc1ccc(CCNC(=O)c2nn(-c3ccc(OC)c(Cl)c3)c(=O)c3c2c2ccccc2n3C)cc1OCC	106	110
CCOC(=O)c1cc(-c2ccccc2)n(CCC(=O)Nc2ccc(OC)c(Cl)c2)c1C	100	102

The list continues:
SMILES	PV pol inh	PV pol inh intensity
COc1ccccc1N1CCN(S(=O)(=O)c2ccc3c(c2)oc(=O)n3C)CC1	107	112
CCOc1ccc(C(=O)NCCS(=O)(=O)N2CCN(c3ccccc3F)CC2)cc1OCC	112	109
Cc1nnc(N2CCC(C(=O)NCCc3ccccc3Cl)CC2)c2nn(-c3ccccc3)c(C)c12	105	99
CCn1c(=O)c2sccc2n2c(CCCC(=O)N3CCN(c4ccc(OC)cc4)CC3)nnc12	49*	59*
CSc1nnc2[nH]c(=O)cc(C)n12	111	112
Cc1c(C(=O)NCc2ccccc2Cl)sc2nc(-c3ccc(F)cc3)cn12	108	106
CCCCCNC(=O)c1ccc2c(c1)nc(C)n2-c1cccc(C)c1	109	106
Cc1cc(F)ccc1NC(=O)c1sc2nc(-c3cccs3)ccc2c1N	113	127
O=C(Cn1cc(SCc2ccc(C(F)(F)F)cc2)c2ccccc21)N1CCCCC1	44*	57*
O=C(CSc1nc2c([nH]c3ccccc32)c(=O)n1-c1ccccc1F)Nc1cccc(Cl)c1	111	116
COc1ccc(NC(=O)CCn2cnnn2)cc1	106	104
O=C(Nc1cc(Cl)cc(Cl)c1)c1ccc(F)c(S(=O)(=O)NCc2ccccc2Cl)c1	106	107
Cc1ccc2oc(=O)c3cnn(CC(=O)N4CCN(c5cc(Cl)ccc5C)CC4)c3c2c1	107	105
Cc1ccc(C)c(NC(=O)CSc2nc(=O)n(Cc3ccccn3)c3c2CCC3)c1	109	108
Cc1ccc2c(c1)-c1nc(-c3ccc4c(c3)NC(=O)CO4)cc(-c3ccccc3)c1CO2	106	113
COc1ccc(NC(=O)Nc2c[nH]c(=O)[nH]c2=O)c(OC)c1	110	109
CCS(=O)(=O)N1CCC(n2c(C(F)(F)F)nc3cccnc32)CC1	110	105
CCOc1ccc(OCC)c(NC(=O)c2csc3c2CCCC3)c1	105	105
Cc1c(Cl)cccc1NC(=O)c1ncoc1-c1ccco1	109	114
COC(=O)c1ccccc1NC(=O)CSc1nc(-c2ccccc2)cc(C(F)(F)F)n1	98	102
COc1ccc(S(=O)(=O)N2CCC(Oc3ccc(-n4cnnn4)cc3)CC2)cc1OC	105	102
O=C(Nc1cc(-c2nc3ccccc3o2)ccc1Cl)c1sc2c([N+](=O)[O-])cccc2c1Cl	105	105
O=C(Nc1cccc2cccnc12)c1cccc2c(Br)cccc12	109	113
CCc1nn(CC(=O)NCCc2ccc(Cl)cc2)c(=O)c2cc3ccccc3n12	111	117
Cc1cccn2c(=O)cc(COc3cccc(NC(=O)COc4ccccc4)c3)nc12	110	110
Cc1ccc(S(=O)(=O)c2nc(-c3ccc(F)cc3)oc2SCC(=O)c2ccccc2)cc1	104	107
COc1cccc(NC(=O)CCSc2nc(-c3ccco3)cc(C(F)(F)F)n2)c1	90*	75*
CCOc1ccccc1NC(=O)C1CCN(S(=O)(=O)c2cccs2)CC1	104	107
CCc1ccc(NC(=O)Cn2nnc(C(=O)Nc3ccc(F)cc3)c2N)cc1	112	102
O=C(Nc1cccc(Br)c1)c1cc(S(=O)(=O)N2CCCCC2)c[nH]1	106	103
Cc1cc(-c2ccc(C)c(S(=O)(=O)Nc3cccc(C#N)c3)c2)on1	106	112
CCN(CC)S(=O)(=O)c1cccc(C(=O)Nc2ccccc2C(=O)Nc2ccc(Cl)cc2)c1	106	102
CC(C)c1ccc(NC(=O)c2cc(S(=O)(=O)NCCc3ccccc3)ccc2F)cc1	104	108
CCN(CCCNC(=O)c1cc2cc3cc(C)ccc3nc2s1)c1cccc(C)c1	109	114
CCc1ccccc1N1CC(c2nnc(NC(=O)c3ccco3)s2)CC1=O (stereo not given)	103	99
COc1ccc(C)cc1NC(=O)N(C(C)C)C1CCN(C(C)=O)CC1	113	113
Cc1ccc(C)c(NC(=O)c2cc(S(=O)(=O)N3CCCc4ccccc43)ccc2F)c1	109	112
CCc1ccc(OC(C)c2nc(-c3ccc(-n4cccc4)cc3)no2)cc1 (stereo not given)	102	109
Cc1ccccc1OCC(=O)Nc1c(C(=O)Nc2ccccc2F)oc2ccccc12	103	97
COc1cc(NC(=O)Cn2c(C)cc(C)c(C#N)c2=O)cc(OC)c1	109	111
O=[N+]([O-])c1cc(-c2nc(-c3ccccc3)no2)ccc1N1CCCCC1	112	111
O=C(Nc1ccccc1F)c1ccc(Cn2nc(N3CCN(c4ccccc4)CC3)ccc2=O)o1	102	107
COc1cccc(C2=NN(C(C)=O)C(c3cn(-c4ccccc4)nc3-c3cccs3)C2)c1 (stereo not given)	101	101
COc1ccc(OC)c(CCNC(=O)c2cc3c(=O)oc4ccc(C)cc4c3s2)c1	108	114
COc1ccc2oc(-c3ccc(C)c(NC(=O)c4ccc(-c5ccccc5[N+](=O)[O-])o4)c3)nc2c1	102	100
CCCN(CCC)CCNC(=O)C1CCN(c2nc3ccc(CC)cc3s2)CC1	104	105
CCc1sc(Nc2cccc(C)c2C)nc1-c1cc2cccc(OC)c2oc1=O	112	110
COc1ccc(NC(=O)c2ccco2)cc1NC(=O)c1cc(OC)c(OC)c(OC)c1	101	105
COc1ccc(-c2noc(N3CCC(C(=O)N4CCN(c5cccc(OC)c5)CC4)CC3)n2)cc1	108	106
COc1ccc(S(=O)(=O)N2CCC(c3nnc(-c4ccccc4C)o3)CC2)c(OC)c1	105	105
Cc1cc(SCC(=O)Nc2ccc(F)cc2F)nc(=O)[nH]1	110	103
CCc1ccc(C2C(C(=O)Nc3ccccc3)=C(C)Nc3c(C(=O)Nc4ccc(C)cc4)cnn32)cc1 (stereo not given)	103	108
COc1ccc(CNC(=O)CN2C(=O)COc3ccccc32)c(OC)c1	116	116
CCOc1ccc(N(C)C(=O)C2CCN(S(=O)(=O)c3c(C)noc3/C=C/c3ccc(C)cc3)CC2)cc1	108	102
COC(=O)c1ccccc1NC(=O)c1ccc2c(=O)n3c(nc2c1)CCCCC3	104	104
Cc1cccc(C2CC(=O)Nc3cc4c(cc32)OCO4)c1 (stereo not given)	104	105
Cc1ccc(CN2c3ccccc3-c3nc(SCC(=O)NCc4ccccc4)ncc3S2(=O)=O)cc1	105	112
Cc1ccc(CSc2nc3ccc(NC(=O)COc4ccccc4)cc3s2)cc1	112	116
CCN(CC)CCn1c(=N)n(CCOc2ccccc2Cl)c2ccccc21	103	101
COc1ccc(NC(=O)C(CC(C)C)NC(=O)C2CCCCC2)c(OC)c1 (stereo not given)	108	110
(further entries)
SMILES	PV pol inh	PV pol inh intensity
O=C(Nc1nnc(S(=O)(=O)N2CCCc3ccccc32)s1)c1ccc(Cl)cc1	111	115
CCCOc1ccc(C2C(=O)N(C3CCCCCC3)CC(=O)N2CCCOCC)cc1OC (stereo not given)	113	112
COc1ccc2c(c1)c(CC(=O)Nc1cc(C)cc(C)c1)c(C)n2C(=O)c1ccc(Cl)cc1	104	104
CC(CC(=O)NCc1ccc(Cl)cc1)CC1=NS(=O)(=O)c2ccccc2N1 (stereo not given)	103	107
CCCCN1C(=O)c2[nH]nc(-c3ccccc3O)c2C1c1cc(Br)c(O)c(OC)c1 (stereo not given)	105	112
COc1ccc(CNC(=O)c2ccc3c(c2)nc2n3CCOC2)c(OC)c1	107	109
CCOC(=O)c1ccc(NC(=O)c2c(C)oc3nc(C)nc(N4CCCC4)c23)cc1	108	116
Cc1ccccc1NC(=O)c1sc2nc3n(c(=O)c2c1C)N=C(c1ccccc1)CS3	105	109
CC(C)c1ccc(N2C(=O)CS(=O)(=O)C23C(=O)N(Cc2cccc(F)c2)c2ccccc23)cc1 (stereo not given)	106	113
CN(CC(=O)Nc1ccccc1F)S(=O)(=O)c1ccc2c(c1)c(=O)n(C)c(=O)n2C	100	100
CCN(CC)C(=O)c1c(-c2ccccc2)c(-c2ccccc2)nn(CC)c1=O	107	98
CCc1cccc(NS(=O)(=O)c2c(C)[nH]c(=O)[nH]c2=O)c1	107	112
COc1ccc(OC)c(NC(=O)c2oc3c(c2C)-c2nn(Cc4ccc(Cl)cc4)cc2CC3)c1	111	101
Cc1ccc(-n2nc(CO)c(C(=O)NCCCCc3ccccc3)n2)cc1C	108	105
CCc1ccc(C2c3c(-c4ccccc4O)n[nH]c3C(=O)N2Cc2cccnc2)cc1 (stereo not given)	107	110
CC(C)(C)c1ccc(S(=O)(=O)c2cnc(SCC(=O)Nc3ccc4c(c3)OCCO4)[nH]c2=O)cc1	104	104
O=C1CC(c2cccc(O)c2)c2c(nc(SCc3ccccc3F)[nH]c2=O)N1 (stereo not given)	107	97
COc1cccc(CNC(=O)c2oc3c(c2C)-c2nn(Cc4cccc(Cl)c4)cc2CC3)c1OC	105	105
Cc1oc2ncnc(N3CCOCC3)c2c1C(=O)NCc1ccc(Cl)cc1	110	106
O=C(CCS(=O)(=O)c1cccc2nonc12)Nc1ccc(Br)cc1	101	103

Given as comma-separated lines: 4 of the compounds above
smiles,PV pol inh,PV pol inh intensity
O=C(CCS(=O)(=O)c1cccc2nonc12)Nc1ccc(Br)cc1,101,103
O=C(Nc1nnc(S(=O)(=O)N2CCCc3ccccc32)s1)c1ccc(Cl)cc1,111,115
COc1ccc(CNC(=O)c2ccc3c(c2)nc2n3CCOC2)c(OC)c1,107,109
CCc1ccc(C2c3c(-c4ccccc4O)n[nH]c3C(=O)N2Cc2cccnc2)cc1 (stereo not given),107,110

Following part:
SMILES	PV pol inh	PV pol inh intensity
CCc1ccccc1NC(=O)CSc1nc2c(oc3ccccc32)c(=O)n1C	104	106
Cc1c(C(=O)OCCOc2ccccc2)[nH]c2c1C(=O)CC(c1ccccc1Cl)C2 (stereo not given)	111	111
CCc1ccc(OCCCSc2nc(-c3ccc(C(C)(C)C)cc3)nc3cc(=O)[nH]n23)cc1	109	103
Fc1cccc(CN2CCc3nc(Nc4ccc5c(c4)OCCO5)ncc3C2)c1F	110	115
Cc1ccc2scc(N3CCN(c4cccc(C(F)(F)F)c4)CC3)c(=O)c2c1	102	100
CCCCn1c(SCC(=O)NCCCOC)nc2c(sc3ccccc32)c1=O	110	100
CCc1ccc(-n2c(=O)c3sc4ccccc4c3n(CC(=O)NC3CCCCC3)c2=O)cc1	105	110
Cc1ccc(-c2nc3ccccn3c2Nc2ccc3c(c2)OCCO3)s1	112	109
CCOC(=O)c1c(NC(=O)COc2ccc(Br)cc2)sc(C(C)=O)c1C	91	94
CCOC(=O)c1c(C)[nH]c(C)c1S(=O)(=O)N1CCC(C(=O)Nc2ccccc2CC)CC1	108	103
O=C(NCCS(=O)(=O)N1CCN(c2cccc(Cl)c2)CC1)c1cc(=O)c2ccccc2o1	112	106

Entries of single compounds, quoted from the list. Order of values: PV pol inh | PV pol inh intensity
`CCCCn1c(SCC(=O)NCCCOC)nc2c(sc3ccccc32)c1=O` is entered as 110 | 100
`Cc1c(C(=O)OCCOc2ccccc2)[nH]c2c1C(=O)CC(c1ccccc1Cl)C2` (stereo not given) is entered as 111 | 111
`CCc1ccc(-n2c(=O)c3sc4ccccc4c3n(CC(=O)NC3CCCCC3)c2=O)cc1` is entered as 105 | 110
